Sfp inh – blocks B. subtilis Sfp PPTase activity; AID 1490; Biochemical Sfp PPTase activity, qHTS; 310,000 compounds, 3.5% hits; Q9F4F7; Potency, µM, inactives show max response, negative = inhibition, usual class: inhibitors; active = well fitted inhibition curve with a large enough effect; inconclusive = small, poorly fitted or top-dose-only effect, or another doubt; inactive = no such curve, though single readings can be large or run the other way;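 note: the enzyme is Sfp with the accession as filed and its product quenches rhodamine fluorescence; potency is the fitted concentration of half-maximal effect; 0% = enzyme reaction without inhibitor and -100% = no enzyme wells; top concentration of the series not given in the record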
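After 15 min at room temperature with compound, 15 nM Sfp received 5 uM rhodamine-CoA plus 12.5 uM BHQ-2-ybbR (50 mM Hepes pH 7.6, 10 mM MgCl2). Rate came from the fluorescence difference over 30 min, ex 525/em 598 nm.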
Menin MLL FP FL – inhibitors of human menin-MLL interaction, wild-type MLL peptide. Fluorescence polarization, fluorescein-MLL peptide displacement from menin. FP activity change, % at 61.4 µM. 290,000 tested, under 10 active. AID 1766; inconclusive = falling polarisation curve, or a change in total fluorescence; inactive = total fluorescence flat and polarisation flat or rising; no compound was filed as active; the % refers to the polarisation; negative = inhibition;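 note: % of control where 0% means no effect; inhibitors lower the polarisation; unlabelled MLL peptide was the positive control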
PINK1 expr mod – PINK1 expression modulation; PINK1 immunofluorescence, high-content cytometry, 24 h; Potency, µM (doses to about 76.6 µM), for inactives: at the highest dose activation (PINK1 increase), most hits filed as activators; 410,000 compounds, 0.2% hits; AID 624263; active = well fitted activation curve with a large enough effect; inconclusive = small, poorly fitted or top-dose-only effect; inactive = flat fitted curve, though single readings scatter; cell line not stated here;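 note: potency is the fitted concentration of half-maximal effect; % of control where 0% means no effect; nearly all actives have a fitted effect of over 65% in size; a mitochondrial uncoupler was the plate control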
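Stable cell line, 250 cells/well, 12 h attachment; compounds pinned at 5 concentrations, 24 h; CCCP control. Fixed with nuclear dye, primary antibodies 12 h at 10 degrees C, secondary plus cell stain; laser-scanning cytometer read.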
ClpP mod – qHTS Assay for Activators of ClpP. ATP-dependent Clp protease proteolytic subunit (Bacillus subtilis (strain 168)), P80244. purified B. subtilis ClpP, FRET peptide cleavage, 20 min. Potency, µM (top dose mostly 57.5 µM), inactives show at the highest dose activity change, negative = active. 340,000 compounds, 1.9% hits; active = well fitted falling curve with a large enough effect; inconclusive = small, poorly fitted or top-dose-only effect; inactive = no such curve, though single readings can be large or run the other way; note: potency is the fitted concentration of half-maximal effect; the source files actives as falling curves though it sought activators and does not explain the sign; nearly all actives have a fitted effect of over 65% in size; many hits overshoot -100%
Target sequence (P80244 whole entry, looked up): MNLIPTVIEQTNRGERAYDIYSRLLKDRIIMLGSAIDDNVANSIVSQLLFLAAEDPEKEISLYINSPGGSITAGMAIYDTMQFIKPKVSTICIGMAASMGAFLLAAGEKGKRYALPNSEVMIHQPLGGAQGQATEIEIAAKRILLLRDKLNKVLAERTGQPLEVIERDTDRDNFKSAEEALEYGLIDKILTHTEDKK
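FRET quenching reversal measured ClpP activation: 10 microg/mL B. subtilis ClpP at pH 8 with the FRET-FV decapeptide, read at 430 nm after 320 nm excitation. The 20-min minus 0-min signal was scaled between DMSO/no-enzyme wells and ADEP (5.8 microM final).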
TRPML1 ag – human mucolipin-1 channel agonism. Q9GZU1. TRPML1-expressing cells, Ca2+ dye fluorescence, FDSS; host cell line not named in the record; reference of the full effect not given here. activation, % (no concentration beside the values). 410,000 compounds, 0.12% hits; in the data active = activation above about 50%; inconclusive = about 30% to 50%; inactive = below about 30%; note: 0% is about no effect; the text of the record puts the active cut at 80%
Target sequence (Q9GZU1 whole entry, looked up): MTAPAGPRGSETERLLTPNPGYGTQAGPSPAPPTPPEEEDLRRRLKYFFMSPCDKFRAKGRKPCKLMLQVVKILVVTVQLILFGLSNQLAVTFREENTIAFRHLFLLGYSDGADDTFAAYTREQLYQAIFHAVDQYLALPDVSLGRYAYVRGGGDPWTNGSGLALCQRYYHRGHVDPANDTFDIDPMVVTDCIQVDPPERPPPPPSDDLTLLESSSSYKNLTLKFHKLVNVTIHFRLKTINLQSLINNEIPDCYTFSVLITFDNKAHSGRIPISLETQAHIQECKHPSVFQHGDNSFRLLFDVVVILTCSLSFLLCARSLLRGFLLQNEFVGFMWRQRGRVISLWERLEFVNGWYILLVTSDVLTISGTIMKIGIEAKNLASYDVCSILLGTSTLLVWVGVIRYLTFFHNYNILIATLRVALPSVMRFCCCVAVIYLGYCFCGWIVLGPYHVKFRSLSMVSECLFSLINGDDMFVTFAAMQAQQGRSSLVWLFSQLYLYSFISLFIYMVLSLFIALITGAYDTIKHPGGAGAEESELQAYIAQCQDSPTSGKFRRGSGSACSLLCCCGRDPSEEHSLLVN
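Agonist activity was taken from a 110 s kinetic Ca2+ dye read on the FDSS after pinning compounds onto TRPML1-DL cells. The cells were seeded at 1,500/well with Tet inducer, incubated about 16 h, then dye-loaded at room temperature.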
TRPV1 PAM – potentiators of human vanilloid receptor 1 (TRPV1); 320,000 compounds, 0.02% hits; TRPV1-expressing cells, Fluo-8 calcium influx, capsaicin EC20 potentiation; host cell line not named in the record; control for the full effect not named in the record; AID 540277; potentiation, % at 8.33 µM; active means potentiation above 80%; inconclusive means 30% to 80%; inactive means below 30%; note: 0% is about no effect
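Fluo-8 calcium influx in TRPV1-expressing cells, kinetic read (ex 480/em 520 nm). Compound added and read 3 min for agonist activity, followed by capsaicin at EC20 final and 2 min further read for enhancement.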
TRPML1 inh – blocks the human TRPML1 channel. Q9GZU1. TRPML1-inducible cells, Ca2+ dye fluorescence, FDSS; hits give low values; inhibition of EC80 agonist-evoked calcium signal. activity change, negative = inhibition, % (no concentration beside the values). 390,000 compounds, 0.02% hits; in the data active means activity change below about -50%; inconclusive means about -30% to -50%; inactive means above about -30%;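 note: stimulus is agonist 54-4 at its EC80 concentration; % is set by controls: 0 for no effect and ±100 for the full control effect; compound concentration not given in the record; the text of the record puts the active cut at -80%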
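Tet-induced TRPML1-DL cells loaded with Ca8 no-wash calcium dye were read kinetically on FDSS. Compound addition was followed by EC80 agonist 54-4 (4 uM final); inhibition was read over 110 s.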
* marks the source's active call; other numbers are inactive results; ? = inconclusive; nt = not tested or not shown; [ ] = another dose, or the depositor's remark.

Every second line gives: Sfp inh, Menin MLL FP FL, PINK1 expr mod, ClpP mod, TRPML1 ag, TRPV1 PAM, TRPML1 inh
Cn1nc(C(C)(C)C)c(NC(=O)c2ccc(F)cc2)c1C(C)(C)C
    0%, 1.4, -2.1%, 11%, -0.2, 23, -7
CCC(C)c1ccc(NC(=S)NCc2ccccn2)cc1 (configuration not stated)
    ?, -0.6, -0.5%, nt, 0.7, -17, -8
C=CCn1c(SC(CCO)C(=O)NCc2ccco2)nc2sc3c(c2c1=O)CCC3 (configuration not stated)
    15%, 2.9, -1.3%, -0.8%, -0.7, -8, -13
COc1cc(/C=N/N=C2/NC(=O)C(Cc3ccccc3)S2)ccc1O (configuration not stated)
    21%, -6.1, -1.8%, nt, 4.0, 16, 13
CC(C)CNC(=O)NC(=O)COC(=O)Cn1cnc2ccccc2c1=O
    19%, -0.6, 0.6%, 0.6%, -0.3, 1, 7
CCc1cnc2c(c1SCC(=O)NCc1ccc(F)cc1)c(=O)n(C)c(=O)n2C
    nt, nt, -0.4%, -0.4%, -1.0, nt, 13
COC(=O)CN1C(=S)N(c2ccc(OC)cc2)C(=O)/C1=C/c1ccc(N2CCOCC2)cc1
    6%, ?, 3.6%, -0.9%, 13, -1, -8
COc1ccc(CCNC(=O)C2CCN(S(=O)(=O)c3cccc4nsnc34)CC2)cc1OC
    11%, 1.6, -0.6%, -0.2%, -0.8, nt, 13
NS(=O)(=O)c1ccc(CNC(=O)c2cccc(Oc3ccccc3)c2)cc1
    6%, -1.0, -1.6%, nt, 1.1, -4, -17
CSCCC(NC(=O)c1ccccc1Cl)C(=O)Nc1ccc(C)c(S(=O)(=O)N2CCOCC2)c1 (configuration not stated)
    nt, nt, 4.5%, -23%, 0.8, 27, 5
CCC1CC2CC(NC(C)=O)C1C2 (configuration not stated)
    7%, -0.3, 2.2%, -0.9%, -0.1, 14, 11
Cc1nn(Cc2ccc(F)cc2)c(C)c1NC(=O)CCCn1nc([N+](=O)[O-])cc1C
    23%, -0.9, -0.1%, 0.2%, -0.6, -12, -10
Cc1ccc(Cl)cc1-n1ncc2c(Nc3cccc(C)c3C)ncnc21
    nt, nt, -0.4%, -21%, 9.1, nt, 6
CCC1(C)NC(=O)N(CC(=O)N2N=C(c3ccccc3)CC2c2ccc(OC)cc2)C1=O (configuration not stated)
    1%, -2.3, 0.2%, -1.1%, 1.5, -1, -1
O=C(CSc1nc2ccccc2c(=O)n1-c1ccccc1F)NC1CC1
    nt, nt, 0.3%, nt, 0.8, nt, -3
CC(N=C1NS(=O)(=O)c2ccccc21)c1ccccc1 (configuration not stated)
    5%, -0.2, -1.9%, -4.0%, -0.5, 26, -14
Cc1cc(N)n(-c2ccc(S(N)(=O)=O)cc2[N+](=O)[O-])n1
    22%, -0.2, 0.0%, nt, 0.0, -6, 3
Cc1ccc2nc(N(Cc3cccnc3)C(=O)C3CCCCC3)sc2c1
    nt, nt, 5.7%, -0.8%, 2.2, nt, -12
O=C1CCCC2=C1C(c1ccc(O)c(Br)c1)C1=C(CCCC1=O)N2c1ccccc1
    -6%, 2.5, 1.0%, nt, 0.9, -1, 1
Nc1ccc(/C=C/c2cc(Cl)nc3ccccc23)cc1
    nt, nt, 0.6%, 0.8%, 11, nt, nt
CCOC(=O)c1ccc(-n2c(CN3CCOCC3)nc3ccc([N+](=O)[O-])cc3c2=O)cc1
    -28%, -2.4, 1.1%, 2.1%, 0.3, 16, -8
CC1(C)C2CCC(C2)C1(C)NC(=O)CN1CCOCC1 (configuration not stated)
    -11%, -1.3, 0.1%, -0.6%, -0.4, 5, -13
Cc1[nH]n(-c2ccccc2)c(=O)c1CCOC(=O)c1ccc(C(F)(F)F)cc1
    5%, 0.4, 0.1%, -8.3%, 0.0, -8, 6
Cc1ccc(-n2ncc3c2CC(C)(C)CC3NC(=O)CCN2CCCO2)cc1 (configuration not stated)
    14%, nt, 3.8%, -0.9%, -0.2, -13, -13
CC(C)(C)OC(=O)N1C(=O)[C@](OC(=O)c2ccccc2)(c2ccccc2)c2cccc(F)c21
    nt, nt, 2.1%, -0.2%, -0.3, nt, nt
COc1ccc(S(=O)(=O)N(C)C[C@H]2Oc3ccc(NS(=O)(=O)c4cccs4)cc3C(=O)N([C@H](C)CO)C[C@@H]2C)cc1
    nt, nt, -1.1%, -0.8%, -0.7, nt, 25
Oc1ccc2ccccc2c1CN1CCOCC1
    -2%, 4.5, 1.0%, nt, 1.2, -4, 2
COc1cc(-c2nc(Cn3nnc(C(=O)Nc4ccc(C)cc4C)c3C)c(C)o2)cc(OC)c1OC
    nt, nt, 1.5%, -13%, -0.7, nt, 2
CCC(=O)Nc1ccc(-c2nnc3c4ccccc4c(C)nn23)cc1
    nt, nt, 0.6%, -11%, -0.1, nt, 3
Cc1cc(=O)oc2cc(OCC(=O)OCC(=O)N(CCC#N)c3ccccc3)ccc12
    18%, 0.2, -0.5%, nt, -0.7, 4, 4

Every second line gives: Sfp inh, Menin MLL FP FL, PINK1 expr mod, ClpP mod, TRPML1 ag, TRPV1 PAM, TRPML1 inh
COCOc1cccc(CN2CCC2(C)C(=O)Nc2ccc(C)cc2)c1 (configuration not stated)
    nt, nt, 2.0%, 1.9%, -1.1, nt, nt
CC(C)[C@H](NC(=O)[C@H](CC(=O)O)NC(=O)[C@H](CCCCN)NC(=O)[C@@H](N)CCCN=C(N)N)C(=O)N[C@@H](Cc1ccc(O)cc1)C(=O)O
    4%, 0.9, nt, nt, nt, 1, nt
Cc1ccc(C)c(NC(=O)[C@@H]2CCCN2S(=O)(=O)c2ccccc2F)c1
    nt, nt, 1.4%, -1.1%, 1.5, -4, -10
Cc1ccc(CN(c2ccc(C(=O)N3CCOCC3)cc2)S(C)(=O)=O)cc1
    20%, 2.7, 1.0%, -2.4%, -0.4, -5, 4
COc1cc(NC(=O)c2cnn3c(C)cc(C)nc23)c(OC)cc1Cl
    -9%, 1.1, -1.4%, -6.6%, -0.1, 11, 17
O=C(CSC(=S)N1CCOCC1)c1cc(Br)cc(Br)c1O
    -29%, 12, 0.4%, nt, 0.2, 5, 34
O=S(=O)(c1ccc(-c2ccon2)s1)N1CCN(c2ccncc2)CC1
    6%, -1.4, 18%, nt, -0.4, 15, 11
CC(=O)c1nc2ccccc2n1CCc1ccccc1
    18%, 3.0, 4.2%, -15%, 0.2, -14, 2
CCC1CCCCN1C(=O)CSc1nc(-c2ccc(OC)cc2)cc(C(F)(F)F)n1 (configuration not stated)
    nt, nt, 1.3%, ?, 1.1, nt, 19
CC(C)c1ccc(NC(=O)CSc2nnc(-c3ccccn3)n2C)cc1
    2%, 1.7, 0.8%, 28µM*, -0.3, 9, 8
Cc1c(CCNC(=O)Cc2ccccc2)sc2nc(-c3ccc(F)cc3)nn12
    nt, nt, 1.0%, -0.2%, 2.1, nt, 2
COc1ccc(/C=C2\CCC(C3CCCC3)C2=O)cc1Cn1cccn1 (configuration not stated)
    ?, -0.3, -1.5%, 9.8%, 0.0, -7, -1
COc1ccccc1NS(=O)(=O)c1cccc(NC(=O)c2ccc3ccccc3n2)c1
    9%, 4.6, 3.1%, -4.5%, 1.0, 0, 7
Cc1nn(Cc2c(F)cccc2Cl)c(=O)c2ccccc12
    -2%, -0.3, 0.0%, nt, 0.9, -12, -4
COc1ccc(-c2nc(-c3ccccn3)ncc2S(C)(=O)=O)cc1
    16%, -0.2, -0.7%, nt, 1.4, -32, 8
COC(=O)c1ccc(S(=O)(=O)N2CCCCC2)o1
    21%, 2.3, -4.1%, -2.0%, -0.7, 11, 10
C[C@H](CO)N1C[C@H](C)[C@@H](CN(C)C(=O)Nc2ccc3c(c2)OCO3)Oc2c(NC(=O)Cc3ccccc3)cccc2C1=O
    nt, nt, -0.4%, -2.1%, -0.5, nt, -10
CCOC(=O)c1ccc(NC(=O)CCc2ccc(CC)o2)cc1
    -10%, 4.7, -1.3%[38.3 µM], 0.7%, 1.4, -11, 10
CN(C)/C=C1\C=C2C(=O)c3ccccc3N2C1=O
    ?, ?, ?, -0.2%, 57*, -21, ?
CC(C)COc1ccc(S(=O)(=O)n2cc(F)c(=O)[nH]c2=O)cc1
    -1%, -0.4, -0.1%, nt, 0.5, -5, 0
CC1(C)N=C(C(=O)c2ccccc2)N(O)C1(C)O (configuration not stated)
    12%, 1.0, nt, -0.3%, -0.2, nt, 8
N#CC(=C1Nc2ccccc2N1)S(=O)(=O)c1ccccc1
    0%, -4.5, 0.6%, nt, 0.7, 7, -6

A different layout for part of the listing above.
SMILES	Sfp inh	Menin MLL FP FL	PINK1 expr mod	ClpP mod	TRPML1 ag	TRPV1 PAM	TRPML1 inh
COCOc1cccc(CN2CCC2(C)C(=O)Nc2ccc(C)cc2)c1 (configuration not stated)	nt	nt	2.0%	1.9%	-1.1	nt	nt
CC(C)[C@H](NC(=O)[C@H](CC(=O)O)NC(=O)[C@H](CCCCN)NC(=O)[C@@H](N)CCCN=C(N)N)C(=O)N[C@@H](Cc1ccc(O)cc1)C(=O)O	4%	0.9	nt	nt	nt	1	nt
Cc1ccc(C)c(NC(=O)[C@@H]2CCCN2S(=O)(=O)c2ccccc2F)c1	nt	nt	1.4%	-1.1%	1.5	-4	-10
Cc1ccc(CN(c2ccc(C(=O)N3CCOCC3)cc2)S(C)(=O)=O)cc1	20%	2.7	1.0%	-2.4%	-0.4	-5	4
COc1cc(NC(=O)c2cnn3c(C)cc(C)nc23)c(OC)cc1Cl	-9%	1.1	-1.4%	-6.6%	-0.1	11	17
O=C(CSC(=S)N1CCOCC1)c1cc(Br)cc(Br)c1O	-29%	12	0.4%	nt	0.2	5	34
O=S(=O)(c1ccc(-c2ccon2)s1)N1CCN(c2ccncc2)CC1	6%	-1.4	18%	nt	-0.4	15	11
CC(=O)c1nc2ccccc2n1CCc1ccccc1	18%	3.0	4.2%	-15%	0.2	-14	2

Screening results from PubChem.
